Assay outcomes from PubChem BioAssay.
Calb biofilm kill – clotrimazole potentiators killing C. albicans biofilm, primary screen, 4-compound mixtures; hit rate 0.02% among 120,000; inhibition, % at 7.6 µM; C. albicans biofilm persisters + clotrimazole, fluorescence viability; primary screen in compound mixtures of four per well; AID 1242, 2008;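 active = inhibition above 30.3% in the primary screen of four-compound pools, then above 30% when the compound was retested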;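 note: compounds exposed to preformed 24 h biofilms for 48 h; the number belongs to the whole pool; some results filed as inactive read as strong as hits; inactives centre near 12; 0% = biofilm with clotrimazole alone and 100% = kill control; retested singly at about 60 µM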
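Probe or stimulus – Clotrimazole 50 µg/mL co-treatment · System – C. albicans biofilms · Schedule – 24 h biofilm formation, then 48 h compound exposure, 37 °C · Evaluation – percent inhibition of biofilm viability · Technique – 2-h Alamar Blue fluorescence, 535/590 nm excitation/emission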
* hit, by the source's call. An excerpt (hit frequency here may not be typical).

SMILES | Calb biofilm kill
Cc1ccc(N2CN(Cc3cccnc3)CNC2=S)cc1 | 14.7
Cc1ccc(C(=O)N/C(=C/c2cccs2)C(=O)NCCc2c[nH]c3ccccc23)cc1 | 10.5
CC1CCN(C(=S)NC(=O)c2cccs2)CC1 | 29.2
COCCCNC(=O)c1cc2cc(Br)ccc2oc1=O | 15.4
O=C(Nc1nnc(COc2ccc(F)cc2)s1)Nc1ccccc1F | 20.8
CSc1nc2ccsc2c(=O)n1-c1ccccn1 | 12.1
CC1=CC(c2ccc(Cl)cc2)n2nc(N3C(=O)CCC3=O)nc2N1 (centres undefined) | 5.5
CCOc1ccc(NC(=S)NCCCc2ccccc2)cc1 | 31.8
O=C(COC(=O)c1ccc(NS(=O)(=O)c2ccc3c(c2)OCCO3)cc1)NC1CCS(=O)(=O)C1 (centres undefined) | 12.1
CC(=O)Nc1ccc2nc3c(=O)n(C)c(=O)n(C)c3nc2c1 | 18.5
COc1cccc(/C=N/NC(=S)NC2CC3CCC2C3)c1OC (centres undefined) | 20.1
Nc1nonc1-n1nnc(C(=O)N/N=C/c2ccc(OCc3ccccc3)cc2)c1COc1ccc(F)cc1 | 12.2

Quoted from the listing.
Cc1ccc(N2CN(Cc3cccnc3)CNC2=S)cc1 in Calb biofilm kill is entered as 14.7
COc1cccc(/C=N/NC(=S)NC2CC3CCC2C3)c1OC (centres undefined) in Calb biofilm kill is entered as 20.1
O=C(COC(=O)c1ccc(NS(=O)(=O)c2ccc3c(c2)OCCO3)cc1)NC1CCS(=O)(=O)C1 (centres undefined) in Calb biofilm kill is entered as 12.1
O=C(Nc1nnc(COc2ccc(F)cc2)s1)Nc1ccccc1F in Calb biofilm kill is entered as 20.8

(more compounds)
SMILES | Calb biofilm kill
COc1cc(-n2c(-c3ccccc3)n[nH]c2=S)c(OC)cc1Cl | 9.6
O=C(CSCc1ccccc1)Nc1ccc(F)cc1F | 11.9
O=[N+]([O-])c1cccc(-c2noc(-c3ccco3)n2)c1 | 16.7
Cc1nn(Cc2c(Cl)cccc2Cl)c(C)c1NC(=O)Cn1nc([N+](=O)[O-])c(Cl)c1C | 15.6
CCOC(=O)c1c(NC(=O)c2cc3n(n2)C(C(F)(F)F)CC(c2ccccc2)N3)sc(C)c1C (centres undefined) | 8.8
Cc1cc(C(=O)COC(=O)Cc2n[nH]c(=O)c3ccccc23)c(C)n1-c1cccc(C(F)(F)F)c1 | 11.1
Cc1cc(C(=O)COC(=O)CC2Sc3ccccc3NC2=O)c(C)n1-c1cccc(C(F)(F)F)c1 (centres undefined) | 8.5
Cc1ccc(C)c(OCc2nnc(NC(=O)c3ccc4c(c3)OCO4)s2)c1 | 9.0
CC(Sc1nc(-c2ccccc2)cc(C(F)(F)F)n1)C(=O)O (centres undefined) | 16.4
CC(C)(C)NC(=S)NNC(=O)c1ccc2ncccc2c1 | 14.0
CC(=O)c1ccccc1OCCOCCOCCOc1ccccc1C(C)=O | 17.4
C/C(=N\NC(=O)CN1CCN(S(=O)(=O)c2ccc(C)cc2)CC1)c1ccc(O)cc1 | 15.9
CC1=Nc2ccccc2N=C(NC(=O)c2ccccc2)C1c1ccccc1 (centres undefined) | 5.0
Nc1c(-c2ccccc2)cnc2cc(-c3ccccc3)nn12 | 13.6
C=CCn1cccc(C(=O)Nc2cc(OC)cc(OC)c2)c1=O | 10.4
Cc1onc(-c2c(Cl)cccc2Cl)c1NC(=O)NN(C)c1ccc([N+](=O)[O-])cn1 | 7.3
COc1ccc(NC(=O)C(=O)N/N=C(\C)CC(=O)Nc2cc(C)ccn2)c(OC)c1 | 16.1
CNC(=O)NC(=O)COC(=O)c1ccccc1OCc1ccccc1 | 8.9
CC(C)CCN(C(=S)NC(=O)C1CCCCC1)c1c(N)n(Cc2ccccc2)c(=O)[nH]c1=O | 4.4
Cn1cccc1/C=N/NC(=O)Cc1cccs1 | 19.3
CC(=O)Cc1nsc(NC(=O)c2ccc(Cl)cc2Cl)n1 | 14.5
Cc1cc(C)n(CC(=O)O)n1 | -4.1
Cc1sc(/C=C2\C(=O)ON=C2c2ccccc2)cc1Br | 8.1
COc1ccc(C(=O)NCC(=O)N/N=C/C(C)=C/c2ccccc2)cc1OC | -10.7
CCCn1c(CCC(=O)O)nc2cc(S(N)(=O)=O)ccc21 | 26.7
C/C(=N\O)c1oc2ccc3c(C)cc(=O)oc3c2c1C | 15.5
O=C1NC(NS(=O)(=O)c2ccc(Cl)cc2)(C(F)(F)F)C(=O)N1Cc1cccnc1 (centres undefined) | -2.2
O=C(O)/C=C/C(=O)Nc1ccc(O)cc1 | 24.1
Cc1ccsc1C(=O)NCCC(c1ccccc1)c1ccccc1 | 5.9
Cc1ccc(C(=O)N(C)c2ccc(OCC(=O)N3c4ccc(C)cc4C4CN(C)CCC43)cc2)cc1 (centres undefined) | 20.2
CCOc1cc(/C=N/NC(=O)C(=O)NCCCOC(C)C)cc(Br)c1O | 15.1
C/C(=N\Nc1nc2ccccc2[nH]1)c1ccc(N2CCOCC2)cc1 | 4.5
Cc1cc(C)nc(NC(=O)c2c(Cl)cccc2Cl)n1 | -2.8
C#CCn1c(=NC(=O)c2ccc(S(=O)(=O)N3CCc4ccccc4C3)cc2)sc2cc(S(N)(=O)=O)ccc21 | 17.5
COCCNC(=O)C(C)N1c2cccc3cccc(c23)S1(=O)=O (centres undefined) | 16.7
COc1ccc(OCC(=O)NC(=S)Nc2ccccc2F)cc1 | 14.1
COc1ccc(NC(=O)c2ccc(-c3nn(C)c(=O)c4ccccc34)cc2)cc1C(N)=O | 23.5
CCC1(C)SC(N)=NN1C(C)=O (centres undefined) | 24.6
c1ccc(C(c2ccccn2)c2ccccn2)cc1 | 6.7
COc1ccccc1OCC(=O)Nc1ccc2c(c1)C(=O)N(CC1CCCO1)C2=O (centres undefined) | 6.3
O=C(CSc1nnc(-c2cccs2)o1)Nc1cccc(S(=O)(=O)N2CCCCC2)c1 | 16.8
CC1(c2ccccc2)NC(=O)N(N)C1=O (centres undefined) | 2.1
CC(C)CC(=O)NC(c1ccccc1Cl)c1c(O)ccc2ccccc12 (centres undefined) | 11.4
O=c1[nH]c(Cc2ccccc2Cl)nc2ccccc12 | 7.2
O=C(NCCc1c[nH]c2ccc(Cl)cc12)c1ccc([N+](=O)[O-])cc1 | 14.3
COc1cc(CNCCNC(=O)c2nonc2N)ccc1OCc1ccc(Cl)nc1 | 13.1
CC1(C)N=C(N)N=C(N)N1c1cccc(CN)c1 | 18.0
CC(=O)N1C(=O)CC(C)N(C(C)=O)c2ccc([N+](=O)[O-])cc21 (centres undefined) | 13.4
O=C(NCCc1c[nH]c2ccccc12)c1cnccn1 | 5.8
CCn1cc(/C=N\NC(=O)c2ccccc2Cl)cn1 | -14.3
CCc1ccc(/C=N/NC(=O)c2cc(-c3ccncc3)nc3ccccc23)s1 | 10.6
COCCn1c(C)cc(C(=O)CSc2nc(C)c(C)c(C)n2)c1C | 15.6
Cc1cccc(Nc2nc3c(S(=O)(=O)c4ccccc4)nnn3c3ccccc23)c1 | 9.5
CCCC(=O)OCC(=O)c1[nH]c(C)c(C(C)=O)c1C | 0.0
COc1ccc(NCC(=O)N/N=C2\CCc3ccccc32)cc1 | 14.6
O=C(CSc1ncc(C(=O)O)n1-c1ccc(F)cc1)NCc1ccc2c(c1)OCO2 | 7.8
CSc1ccccc1NC(=O)COC(=O)c1ccc(O)cc1 | 12.3
Cc1ccc(Sc2ccc(C(=O)N(C)C)cc2[N+](=O)[O-])cc1 | 15.8
Cn1nc(-c2ccccc2)cc1NC(=O)Nc1ccccc1F | 12.7
Cn1cc(C=O)c2cc(F)ccc21 | -11.5

Rewritten as labelled records: four of the compounds above
O=C(NCCc1c[nH]c2ccccc12)c1cnccn1
  Calb biofilm kill = 5.8
Cc1cccc(Nc2nc3c(S(=O)(=O)c4ccccc4)nnn3c3ccccc23)c1
  Calb biofilm kill = 9.5
Cc1ccc(Sc2ccc(C(=O)N(C)C)cc2[N+](=O)[O-])cc1
  Calb biofilm kill = 15.8
CCCC(=O)OCC(=O)c1[nH]c(C)c(C(C)=O)c1C
  Calb biofilm kill = 0.0

(listing goes on)
SMILES | Calb biofilm kill
CNC(=S)N/N=C/c1cn(Cc2ccc(C)cc2)c2ccccc12 | 20.6
CCOC(=O)C(=O)N1CCN(CC)CC1 | 7.9
CC(C)(C)NC(=O)C(c1ccncc1)N(C(=O)Cn1nnc(-c2ccc(F)cc2)n1)c1ccccc1 (centres undefined) | 5.4
O=C(O)CCCCC1SCC2NC(=O)NC21 (centres undefined) | 18.3
COC(=O)CN1C(c2ccc(Cl)cc2)=Nc2ccc(Cl)cc2C1c1ccccc1 (centres undefined) | 12.8
CCCCCC1CCC(c2ccc(/C(N)=N/O)cc2)CC1 (centres undefined) | 7.8
O=C(Nc1ccc(N2CCOCC2)cc1)c1cc(F)c(F)cc1Cl | 18.6
Fc1ccc(-c2csc(NC3=NCCC3)n2)cc1 | 10.3
CN(Cc1cccnc1)C(=O)CC1C(=O)NCCN1CC(c1ccccc1)c1ccccc1 (centres undefined) | 6.9
Cc1cc(C)c(C(=O)Nc2cccc(F)c2)c(Cl)n1 | 18.7
CCn1c(CCNC(=O)c2cccs2)nnc1SCC(=O)Nc1cccc(Cl)c1 | 12.8
Clc1ccc(CNc2nc(CN3CCOCC3)nc3scc(-c4ccccc4)c23)cc1 | 5.6
O=C(Nc1c(C(=O)N2CCCC2)cnn1-c1ccccc1)c1cccc(F)c1 | 3.8
CCCc1cc(=O)[nH]c(SCC(=O)Nc2ccc(C)cc2)n1 | 12.8
O=[N+]([O-])c1ccc(NCc2ccc(Cl)cc2)nc1 | 26.0
Cc1cc(NCc2ccccn2)n2nc(C)c(-c3ccc(Cl)cc3)c2n1 | 19.5
CC(C)c1nc2sc3c(=O)[nH]c(=S)[nH]c3c2c2c1CCCC2 | 17.9
Cn1nc([N+](=O)[O-])c(C(C#N)c2nc3ccccc3n2C)c(Cl)c1=O (centres undefined) | 9.9
CSc1nnc(-c2sccc2-n2cccc2)o1 | 4.0
COCCNC(=O)CN1CCCCCC1 | 10.3
CC(C)(C)NC(=O)CSCc1ccc(Br)cc1 | 18.5
COc1cc(/C=C(\C#N)c2ccccn2)ccc1OCc1ccccc1Cl | 8.6
O=c1[nH]ncc(N/N=C\c2ccc(O)cc2O)c1Cl | 6.4
COc1ccc(-c2c(C(F)(F)F)oc3cc(OCC(=O)Nc4ccccc4C(F)(F)F)ccc3c2=O)cc1OC | 17.1
Cc1cc(C(=O)OCC(=O)NCc2ccco2)c(C)o1 | 11.2
COc1ccc(N2CCN(c3nc(Cl)nc(N4CCOCC4)n3)CC2)cc1 | 0.9
Cc1cccc(C)c1NC(=S)NCCc1ccccn1 | 5.1
C=CCn1c(O)c(C=Nc2ccccc2)sc1=S | 17.1
COC(=O)COc1c(Cl)cc(Cl)c2ccc(C)nc12 | 15.4
COc1ccc(NC(=O)c2sc(N3CCOCC3)nc2-c2ccccc2)c(OC)c1 | 2.8
CN(C(=O)c1ccc(C#N)cc1)c1nnc(-c2cnccn2)s1 | 15.2
COc1ccc(NC(=S)NCc2ccc(S(N)(=O)=O)cc2)cc1OC | 12.4
CCOC(=O)N1CCN(C(=O)c2ccc(Oc3ccc([N+](=O)[O-])cc3)cc2)CC1 | 6.6
COc1ccccc1NC(=O)CCn1c(=O)sc2ccccc21 | 12.7
CC1CCN(c2nc3c(cc2C#N)COC(C)(C)C3)CC1 | 18.3
Cc1cccc2c(Cl)cc(=O)[nH]c12 | 15.9
CCC(COC)NCc1cn(-c2ccc(F)cc2F)nc1-c1ccccc1C (centres undefined) | 9.4
NC(CO)C(=O)NNCc1ccc(O)c(O)c1O (centres undefined) | 0.2
FC(F)(F)c1cccc(N2CCC(N=CN3CCCCCC3)=N2)c1 | 18.3
COc1cccc(CNCc2cccc(Br)c2)c1OC | 5.6
COc1cccc(/C=N/NC(=O)c2cccs2)c1 | 30.2
CC(=O)c1cn(-c2ccc(Cl)cc2)c(=O)n(Cc2ccc(F)cc2)c1=O | 5.4
Clc1ccc(-c2nnc(SCc3nc4ccccc4s3)o2)cc1 | 1.3
CC(=O)c1ccc(NC(=O)Nc2ccc([N+](=O)[O-])cc2C)cc1 | 8.4
COc1ccccc1NC(=O)C1CCC(CNc2c(N3CCCCC3)c(=O)c2=O)CC1 (centres undefined) | 26.3
O=C(OC(C(=O)Nc1ccc([N+](=O)[O-])cc1Br)c1ccccc1)c1ccccc1 (centres undefined) | -1.4
CC(C)c1ccc(NC(=O)CSc2n[nH]c(=O)n2Cc2ccco2)cc1 | 26.0
CCc1cccc(CN2CCC(CNC(=O)Nc3ccc(Cl)cc3)CC2)c1 | 10.5
COc1ccccc1NC(=O)Nc1cc(C(C)C)ccc1C | 18.1
CC(=O)NCC(=O)NC(Cc1ccccc1)C(N)=O (centres undefined) | 9.8
COCC1CCCN(Cc2nc(C(c3ccccc3)c3ccccc3)no2)C1 (centres undefined) | 0.1
COc1ccc(C2CC(c3cccs3)=NN2S(C)(=O)=O)cc1 (centres undefined) | 27.7
Cc1ccc(O)c(C(=O)/C=C/c2ccc3c(c2)OCCO3)c1 | 14.0
CC(C)Cn1c(N)c(C(=O)COC(=O)c2cc(C(F)(F)F)nc3ccccc23)c(=O)n(C)c1=O | 15.5
Cc1oc(-c2ccc(Cl)cc2)cc1C(=O)/C(C#N)=C/Nc1cccc(OC(F)(F)F)c1 | 12.5
CCN(C(=O)COC(=O)/C=C/c1ccc(S(=O)(=O)N2CCc3ccccc32)cc1)C1CCS(=O)(=O)C1 (centres undefined) | 15.6
COc1ccc(Cl)cc1NC(=O)c1cc(-c2ccccc2O)n[nH]1 | 9.2
COc1ccc(C2/C=C\CN(C(=O)CC(C)(C)C)CC(=O)N2Cc2ccc(F)cc2)cc1 (centres undefined) | 16.3
CCCCCCCCc1nc(SCC(C)=O)n[nH]1 | 24.1
O=C(COC(=O)/C=C/c1ccco1)Nc1ncc(Cl)cc1Cl | 0.6
